CtBP-E1A inh: qHTS Assay for Inhibitors of the CtBP/E1A Interaction; activity change, % (concentration not given with the values); CtBP / adenovirus E1A interaction (AlphaScreen); AlphaScreen GST-E1A/His-CtBP binding, 1536-well; stronger effect = lower value; control for the full effect not named in the record; AID 651724, 2012; 340,000 tested, 0.49% active; in the data active means activity change below about -65%; inconclusive means about -30% to -65%; inactive means above about -30%; note: % is set by controls: 0 for no effect and ±100 for the full control effect
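In 5 uL wells, 23 nL compound meets equimolar GST-E1A and His-CtBP (5X stock 125 nM each) for 2 h, 37 °C. Beads (5X, 50 ug/mL) then 1 h, 37 °C, dark.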
PINK1 modulator: A Quantitative High throughput Screen to Identify Chemical Modulators of PINK1 Expression. PINK1 immunofluorescence, high-content cytometry, 24 h. Potency, µM (titrated, usually from 76.6 µM), for the others: at the top dose activation (PINK1 increase), usual class: activators. 410,000 tested, 0.2% active. AID 624263, 2012; active = well fitted activation curve with a large enough effect; inconclusive = small, poorly fitted or top-dose-only effect; inactive = flat fitted curve, though single readings scatter; cell line not stated here;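 note: potency is the fitted concentration of half-maximal effect; % of control where 0% means no effect; nearly all actives have a fitted effect of over 65% in size; a mitochondrial uncoupler was the plate control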
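Fluorescence from anti-PINK1 antibody, together with nuclear and cell stains, was scanned on a laser-scanning cytometer. Before staining, stable-line cells were incubated 24 hours with compounds at 5 concentrations; primary antibody 12 h at 10 degrees C.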
Six1-Eya2 inh: qHTS Assay for Inhibitors of the Six1/Eya2 Interaction | Homeobox protein SIX1 (Homo sapiens) + Protein phosphatase EYA2 (Homo sapiens), … | AlphaScreen GST-Six1/His-Eya2 binding, biochemical; stronger effect = lower value; control for the full effect not named in the record | activity change, % (test concentration not listed) | 360,000 tested, 0.56% active | AID 651725, 2012; in the data active = activity change below about -65%; inconclusive = about -30% to -65%; inactive = above about -30%; note: % is set by controls: 0 for no effect and ±100 for the full control effect; compound concentration not given in the record
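GST-Six1 + His-Eya2 (5X stock: 250/500 nM); Tris pH 8.0, 300 mM NaCl, 0.05% BSA, 0.02% Tween 20; GSH donor/Ni acceptor beads; 1 h 37 °C dark; AlphaScreen readout.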
D2 ag: Beta-Arrestin HTS for Positive Allosteric Modulators of the Human D2 Dopamine Receptor: Agonists; D(2) dopamine receptor (Homo sapiens), P14416; DiscoveRx PathHunter D2 beta-arrestin, luminescence, 90 min; 100% = 57 uM dopamine signal; activation, % (no concentration beside the values); 360,000 tested, 0.084% active; in the data active = activation above about 40%; inconclusive = about 15% to 40%; inactive = below about 15%; note: compound concentration not given in the record; the text of the record calls up to 30% inactive
Target sequence (P14416 whole entry, looked up): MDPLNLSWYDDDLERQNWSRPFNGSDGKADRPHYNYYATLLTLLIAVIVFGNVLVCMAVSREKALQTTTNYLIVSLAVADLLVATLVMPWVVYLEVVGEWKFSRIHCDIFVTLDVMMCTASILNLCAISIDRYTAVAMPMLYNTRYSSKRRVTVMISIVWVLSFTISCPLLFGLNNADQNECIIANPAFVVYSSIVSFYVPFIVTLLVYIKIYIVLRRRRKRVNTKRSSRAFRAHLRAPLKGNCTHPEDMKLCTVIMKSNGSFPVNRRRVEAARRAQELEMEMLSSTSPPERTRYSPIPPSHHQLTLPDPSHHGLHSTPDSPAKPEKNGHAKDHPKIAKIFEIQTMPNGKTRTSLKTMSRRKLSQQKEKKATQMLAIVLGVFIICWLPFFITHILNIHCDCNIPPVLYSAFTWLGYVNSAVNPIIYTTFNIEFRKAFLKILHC
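DiscoveRx PathHunter D2 beta-arrestin cells (2,100/well) attached overnight, then compound-stimulated 90 min at 37 C in HBSS/10 mM HEPES/0.1% Tween-20 buffer; beta-galactosidase complementation read by luminescence after 1 h at ambient temperature. Dopamine 57 uM final (EC100) as control.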
TRPML1 ag: qHTS for Agonists of the Human Mucolipin Transient Receptor Potential 1 (TRPML1); TRPML1-expressing cells, Ca2+ dye fluorescence, FDSS; host cell line not named in the record; reference of the full effect not given here; activation, % (no concentration beside the values); 410,000 tested, 0.12% active; AID 624414, 2012; in the data active = activation above about 50%; inconclusive = about 30% to 50%; inactive = below about 30%; note: 0% is about no effect; the text of the record puts the active cut at 80%
Target sequence (Q9GZU1 whole entry, looked up): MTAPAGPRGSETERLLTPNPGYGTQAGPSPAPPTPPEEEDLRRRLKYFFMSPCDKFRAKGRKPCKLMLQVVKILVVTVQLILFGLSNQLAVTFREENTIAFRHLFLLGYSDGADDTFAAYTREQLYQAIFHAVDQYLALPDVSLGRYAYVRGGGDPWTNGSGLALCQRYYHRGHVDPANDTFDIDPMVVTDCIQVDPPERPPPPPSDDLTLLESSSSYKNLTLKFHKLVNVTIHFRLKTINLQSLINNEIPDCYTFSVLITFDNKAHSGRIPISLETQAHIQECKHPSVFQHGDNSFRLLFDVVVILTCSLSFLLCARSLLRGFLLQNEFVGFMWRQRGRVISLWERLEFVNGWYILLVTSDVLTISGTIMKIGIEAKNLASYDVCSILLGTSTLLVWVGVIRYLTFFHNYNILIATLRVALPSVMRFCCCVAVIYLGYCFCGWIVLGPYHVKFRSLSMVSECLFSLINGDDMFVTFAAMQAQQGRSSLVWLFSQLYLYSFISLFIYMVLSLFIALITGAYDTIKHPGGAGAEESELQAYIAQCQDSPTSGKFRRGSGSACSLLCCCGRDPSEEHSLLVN
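Tet-induced TRPML1-DL cells, 1,500 per well, cultured overnight, were loaded with a no-wash Ca2+ dye for 45–90 min. Calcium fluorescence was recorded on the FDSS for 110 s after compound addition, before the EC80 agonist (4 uM 54-4) was added.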
TRPML1 inh: qHTS for Inhibitors of the Human Mucolipin Transient Receptor Potential 1 (TRPML1). TRPML1-inducible cells, Ca2+ dye fluorescence, FDSS; stronger effect = lower value; inhibition of EC80 agonist-evoked calcium signal. activity change, negative = inhibition, % (no concentration beside the values). Mucolipin-1 (Homo sapiens), Q9GZU1. 390,000 tested, 0.02% active; in the data active means activity change below about -50%; inconclusive means about -30% to -50%; inactive means above about -30%;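 note: stimulus is agonist 54-4 at its EC80 concentration; % is set by controls: 0 for no effect and ±100 for the full control effect; compound concentration not given in the record; the text of the record puts the active cut at -80%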
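Tet-induced TRPML1-DL cells loaded with Ca8 no-wash calcium dye were read kinetically on FDSS. Compound addition was followed by EC80 agonist 54-4 (4 uM final); inhibition was read over 110 s.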
* hit, by the source's call; ? = inconclusive; · = no result given; & = joins results of further samples; [ ] = dose if it differs, or a comment.

SMILES	CtBP-E1A inh	PINK1 modulator	Six1-Eya2 inh	D2 ag	TRPML1 ag	TRPML1 inh
COc1ccc(/C=C/C(=O)Nc2ccc(C34CC5CC(CC(O)(C5)C3)C4)cc2)cc1OC	·	3.9%	-18	-2.9	0.1	19
C[C@H](C(=O)CC(=O)OC(C)(C)C)[C@H](O)c1ccccc1	8	0.8%	4	-0.9	0.0&0.1	-17&-1
O=C(NC(=S)NNC(=O)c1ccco1)c1ccc(Br)cc1	·	1.6%	-9	-7.8	3.2	-11
Cc1cccc(Nc2c([N+](=O)[O-])ccc3nonc23)c1	·	0.6%	-23	5.8	3.3	29
CC1=C(c2ccc(C)c(C)c2)S(=O)(=O)N(Cc2ccc(C(=O)NC(C)c3ccccc3)cc2)C1=O (centres undefined)	·	10%	·	·	2.3	-1
NC(=O)CC(NC(=O)Cc1ccc(Cl)cc1)c1ccc(NCCc2ccccc2F)c([N+](=O)[O-])c1 (centres undefined)	-4	0.0%	-6	-0.6	-0.2	-4
COc1ccc(OC)c(NC(=S)NCCN2CCOCC2)c1	-1	1.5%	-1	-4.0	-0.5	-1
CCS(=O)(=O)N1Cc2ccccc2CC1C(=O)Nc1ccc(C)cc1 (centres undefined)	5	·	8	-2.2	0.1	15
COc1cccc2c1cc1c(=O)n(CC(=O)N3CCN(c4cccc(C)c4)C(C)C3)nc(C)n12 (centres undefined)	·	1.6%	·	·	-0.1	46
CC1CCN(C(=O)Cn2nnc(-c3ccc([N+](=O)[O-])cc3)n2)CC1	-3	2.3%	1	-2.5	0.9	-2
CC(C)COc1ccc(C(=O)Nc2ccc(N3CCOCC3)cc2N2CCOCC2)cc1	4	3.9%	1	-3.7	1.4	6
CCCOc1ccc(/C=N/Nc2cc(N3CCOCC3)ncn2)c(O)c1	·	0.7%	-18	-18	·	·
Cc1ccccc1C1(O)c2ccccc2-c2ccccc21	1	13%	0	-14	-0.3	30
O=C(c1ccc(COc2c(F)c(F)c(F)c(F)c2F)o1)N1CCOCC1	-2	1.9%	3	-0.4	-0.2	5
CN1CCN(CC(=O)N2N=C(c3cccs3)CC2c2ccco2)CC1 (centres undefined)	-2	1.0%	-3	-4.1	0.6	11
Cc1ccc(SCCNS(=O)(=O)c2ccc3c(c2)OCCO3)cc1	7	1.0%	0	-2.9	2.0	-11
O=C(NC(=S)Nc1ccccn1)c1cccc([N+](=O)[O-])c1	-74*	0.3%	?	-0.5	0.5	27
O=C(CSc1nc2ccc(Cl)cc2o1)NCc1ccc2c(c1)OCO2	4	7.7%	?	-3.2	0.7	-18
C=CCNc1ncnc2c1cnn2-c1cccc(C)c1	-2	1.1%	-9	-0.9	-0.8	13
CCCNC(=O)CCC(=O)N1Cc2cccc(OC)c2Oc2ncccc21	·	-0.6%	·	·	0.8	25
CC(=O)Nc1cc[n+](CC(=O)c2ccc(Cl)cc2)cc1	2	0.8%	2	0.2	0.2	-19
C=C(C)c1cccc(C(C)(C)NC(=O)Nc2ccc(C(N)=O)cc2)c1	?	5.0%	-11	-2.6	0.0	1
Cc1cccc(N2CC(C)Cn3c2nc2c3c(=O)[nH]c(=O)n2C)c1 (centres undefined)	0	0.8%	-15	-3.1	1.8	7
CCOC(=O)CCCC(=O)N1CCN(/[N+]([O-])=N/Oc2ccc([N+](=O)[O-])cc2[N+](=O)[O-])CC1	·	2.2%	·	·	1.9	-10
CCc1ccc(/C=N/n2c(C)cc(C)c(C#N)c2=O)cc1	6	1.1%	1	-0.5	-0.4	0
CC(=O)c1ccccc1NC(=O)c1ccc(N2CCCC2=O)cc1	6	2.2%	12	-0.2	1.9	4
CN(C)C(CNC(=O)CCNS(=O)(=O)c1ccccc1C(F)(F)F)c1ccccc1 (centres undefined)	-2	-0.7%	12	2.1	1.1	7
O=C(N/N=C/c1cccn1-c1cccc(C(=O)O)c1)Nc1ccccc1	-2	5.6%	-26	-2.5	1.6	1
CCCCCC1CCC(c2ccc(/C(N)=N/O)cc2)CC1 (centres undefined)	·	4.9%	1	-4.0	-0.3	24
Cc1ccc(Cn2cc(/C=C(/C#N)C(=O)Nc3cccc(Cl)c3)c3ccccc32)cc1	·	1.2%	·	·	-0.3	-14
COc1ccc2cc(CN(Cc3ccco3)C(c3nnnn3C3CCCCC3)C(C)C)c(=O)[nH]c2c1 (centres undefined)	-3	4.9%	9	-2.6	0.5	7
COc1ccc(OC)c(S(=O)(=O)Nc2ccc3c(c2)n(C)c(=O)n3C)c1	-2	0.1%&-0.8%	2	-2.0	0.4&1.7	11&-6
COc1ccc(S(=O)(=O)N(CCc2ccccc2)CC(=O)O)cc1C	2	-0.4%[38.3 µM]	3	-1.6	1.0	0
CSCCC(NC(=O)c1ccccc1)C(=O)NCCCSc1ccccc1 (centres undefined)	·	1.0%	-6	-2.4	0.6	9
O=C(NCc1ccc(Cl)cc1)C1CCCN(c2ncnc3onc(-c4ccc(F)cc4)c23)C1 (centres undefined)	·	1.5%	·	·	0.1	-2
O=C(O)C1c2ccccc2Cc2ccccc21	-12	1.3%	-7	-6.2	0.6	-9
Cc1ncoc1C(=O)N1CCCC(C(=O)c2ccc(-c3ccccc3)cc2)C1 (centres undefined)	·	-1.7%	-3	-0.5	1.2	-3
O=C(CN1C(=O)CSc2ccc(S(=O)(=O)N3CCOCC3)cc21)NCCCN1CCc2ccccc2C1	·	-2.6%	8	0.4	0.5	-1
N#Cc1ccc(CSc2nc(N)cc(=O)[nH]2)cc1	·	-0.9%	14	0.1	0.0	7
O=C(O)CSc1nnc(SCc2cccc3ccccc23)s1	1	9.2%[38.3 µM]	-2	-1.8	-0.5	-3
O=C(Nc1ccc(S(=O)(=O)NCc2ccco2)cc1)c1ccncc1	-3	0.7%	5	-0.9	-0.3	9
CC(C)=C1SC(N2CCN(c3cccc(C)c3)CC2)=NC1=O	8	·	-5	1.8	1.0	39
Cc1ccc(O)c(NC(=O)c2noc(C(C)C)c2[N+](=O)[O-])c1	2	2.2%	-5	5.6	0.1	24
CCc1c(C)sc2nc(C(C)C)nc(SCC(=O)N3CCc4ccccc4C3)c12	9	-0.9%[38.3 µM]	-1	-0.9	-0.7	2
Cc1ccc(NC(=O)CN2CCc3ccccc3C2)cc1	8	-0.3%	2	-1.9	-0.7	7
C=CCN1C2CCCC1CC(NC(=O)Nc1cccc(C(C)=O)c1)C2 (centres undefined)	35	-0.6%	23	-2.6	-0.2	-4
CN1C(=O)CC(N2CCN(CCN=CC3=C(O)CC(C)(C)CC3=O)CC2)C1=O (centres undefined)	0	-0.1%	11	0.2	0.2	-1
COc1ccc(-c2cc(-c3n[nH]c(=S)n3-c3ccccc3OC)[nH]n2)cc1	20	5.2%	-16	-1.6	-0.8	11
CCOC(=O)C1CCCCN1Cc1ccc(F)c(Br)c1 (centres undefined)	-2	0.3%	1	-3.3	1.0	13
Oc1ccccc1-c1nc(NCc2cccnc2)c2ccccc2n1	-27	1.0%	-5	3.8	·	·
Cc1ccc(NC(=O)c2ccc(NC(=O)C3CCCCC3C(=O)O)cc2)cc1 (centres undefined)	-28	0.6%	-10	-0.6	-0.5	4
C=CCNC(=S)NNC(=O)c1ccco1	6	1.0%	-1	0.4	0.0	-5
Cc1ccc(NC(=O)c2cc(C)n(-c3cccc(C)c3)c2C)cc1	24	29%	-18	-1.9	2.3	6
Cn1nc(CC(=O)Nc2cccc3ncccc23)c2ccccc2c1=O	-3	2.0%	-1	-1.3	-0.5	-20
Cc1cccc(NC(=O)CN2C(=O)CCc3ccccc32)c1C	·	2.3%	·	·	-0.8	-5
O=[N+]([O-])c1ccc(S(=O)(=O)N2CCSC2c2ccco2)cc1 (centres undefined)	-14	3.5%	-14	7.5	-0.1	-1
CCCOc1ccc(CSc2nnc(CCC)n2N)cc1	-4	-3.1%	10	-2.6	1.2	10
CCc1ccccc1NC(=O)CN(C)C(=O)CSc1nn(-c2ccc(F)cc2)c(=S)s1	2	2.2%	2	-2.1	0.0	-13
C[C@H](CO)N1C[C@H](C)[C@@H](CN(C)C(=O)Nc2ccccc2)Oc2ccc(NC(=O)C3CC3)cc2C1=O	-10	-0.6%	4	-2.8	0.1	-11
CCN(C(=O)Cn1c(=O)oc2ccccc21)C1CCS(=O)(=O)C1 (centres undefined)	6	3.9%	11	-2.1	-0.4	1

(next part)
SMILES	CtBP-E1A inh	PINK1 modulator	Six1-Eya2 inh	D2 ag	TRPML1 ag	TRPML1 inh
CCOc1ccc(N2CC(=O)N(c3ccc(OCC)cc3)CC2=O)cc1	-1	-2.8%	3	2.5	1.1	4
CCOc1ccc(CN(C)C(=O)c2ccc(NS(=O)(=O)c3ccc4[nH]c(=O)[nH]c4c3)cc2)cc1	0	?	-10	-1.4	-0.4	-5
COc1ccc(N2CCN(C(=O)c3ccc(-n4nc(C)cc4C)cc3)CC2)cc1	-4	0.6%[38.3 µM]	0	2.6	-1.0	11
COc1ccc(S(=O)(=O)NCC(c2ccco2)S(=O)(=O)c2cccs2)cc1C (centres undefined)	·	0.8%	·	·	0.4	-12
O=C(NC(=S)NC1CCCc2ccccc21)c1ccc(F)cc1 (centres undefined)	3	5.6%	-18	3.0	-0.9	-6
Cc1ccc(CCN2CC(C(=O)NCCCN3CCCCCC3)CC2=O)cc1 (centres undefined)	4	-0.1%	1	-2.4	-0.6	41
O=C(CCn1cnc2ccccc2c1=O)Nc1cccc(Cl)c1Cl	·	-1.4%	-3	-3.7	4.0	-17
O=C(O)c1cccc(-n2nnnc2SCc2ccccc2Cl)c1	3	-0.2%	1	3.5	-0.3	-1
COc1ccc(C(=O)COC(=O)CN2C(=O)C3C4CCC(C4)C3C2=O)cc1 (centres undefined)	-2	0.7%	6	-3.8	-0.2	6
N/C(=N\OC(=O)c1cc(Cl)ccc1Cl)c1ccncc1	5	-0.6%	-1	3.7	-1.1	1

Full records, quoted from the list. Values in the order: CtBP-E1A inh, PINK1 modulator, Six1-Eya2 inh, D2 ag, TRPML1 ag, TRPML1 inh
CCOc1ccc(N2CC(=O)N(c3ccc(OCC)cc3)CC2=O)cc1 as listed: -1, -2.8%, 3, 2.5, 1.1, 4
N/C(=N\OC(=O)c1cc(Cl)ccc1Cl)c1ccncc1 as listed: 5, -0.6%, -1, 3.7, -1.1, 1

Ordered by the number under Six1-Eya2 inh (lowest first): some entries from above
Molecule,CtBP-E1A inh,PINK1 modulator,Six1-Eya2 inh,D2 ag,TRPML1 inh
O=C(N/N=C/c1cccn1-c1cccc(C(=O)O)c1)Nc1ccccc1,-2,5.6%,-26,-2.5,1
CCCOc1ccc(/C=N/Nc2cc(N3CCOCC3)ncn2)c(O)c1,·,0.7%,-18,-18,·
COc1ccc(C(=O)COC(=O)CN2C(=O)C3C4CCC(C4)C3C2=O)cc1 (centres undefined),-2,0.7%,6,-3.8,6
CCN(C(=O)Cn1c(=O)oc2ccccc21)C1CCS(=O)(=O)C1 (centres undefined),6,3.9%,11,-2.1,1

From PubChem BioAssay
